# fixLJ activator: B. multivorans fixK reporter activation; B. multivorans fixK-promoter GFP reporter, 18 h; stronger effect = higher value; z-score (test concentration not listed); 0.3% of 29,000 active;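 active means replicate mean overnight rise in green fluorescent reporter signal, 3 or more SD over negative controls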;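 further: score is relative to vehicle wells of the plate; 300 nL library stock went into each well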
# An asterisk follows results filed as active. This is a subset. The share of hits here may be higher or lower than overall.
SMILES	fixLJ activator
CCOC(=O)CN(Cc1ccccc1)C(C(=O)NC1CCCCC1)c1ccccc1 (stereo not drawn)	-0.7
O=C(c1ccc2cc[nH]c2c1)N1CCCN(Cc2cccnc2)CC1	0.44
CCOC(=O)c1c(C)n(-c2ccccc2)c2ccc(OC(=O)COc3ccc(Cl)cc3)cc12	-1.8
CCN1CC(NC(=O)c2ccc3c(c2)nc(N2CCOCC2)n3C)CC1=O (stereo not drawn)	-1.3
CN1CCC(N(C)C(=O)c2cnc3c(c2)nc(-c2ccccc2Cl)n3C)CC1	1.6
Clc1ccc(COC(Cn2ccnc2)c2ccc(Cl)cc2Cl)cc1 (stereo not drawn)	-1.3
Cc1ccc(S(=O)(=O)NCc2nc3nc(C)cc(C)n3n2)cc1	0.48
Cc1[nH]cnc1C(=O)N1CCc2c(c(C(=O)O)nn2CC2CC2)C1	0.13

# (next part)
SMILES	fixLJ activator
Cc1ccc2oc(=O)c3cnn(CC(=O)Nc4cccc(C(F)(F)F)c4)c3c2c1	-1.6
Cc1ccc(CNC(=O)C2CCN(S(=O)(=O)c3ccc4c(c3)oc(=O)n4C)CC2)cc1	-1.5
Cc1cc(C)n2c(Nc3ccc(C(C)C)cc3)c(-c3ccsc3)nc2n1	-0.48
CC1=C(C(=O)Nc2cccc(C)c2C)C2(CCCCC2)OC1=O	-0.77
Cc1cccc(N2CCN(CC(=O)Nc3nnc4nc(C)ccn34)CC2)c1	-0.04
COC(=O)Cc1c(C)nc2nc(-c3ccc(C)cc3)[nH]n2c1=O	-2.5
Cc1ccc(Nc2c(-c3ccc(N4CCOCC4)cc3)nc3c(C)cccn23)cc1	0.33
CCc1cc2c(cc3c(=O)n(CC(=O)NC(C)c4ccccc4)ncn32)s1 (stereo not drawn)	-2.4

# Going on with the list.
SMILES	fixLJ activator
Cc1ccc(-n2c(SCC(=O)Nc3c(C)cccc3C)nc(O)c(C)c2=O)cc1	-0.6
CC(=O)c1ccc(NC(=O)CC2Oc3ccc(C)cc3NC2=O)cc1 (stereo not drawn)	-0.47
CCCCN1CC2(CCCN(C(=O)c3cc(C)nn3CC)C2)CCC1=O (stereo not drawn)	-0.83
Cc1cc(C(F)(F)F)n2nc(C(=O)NCC3CCOC3)cc2n1 (stereo not drawn)	-0.17
O=C(CN1C(=O)COc2ccc(S(=O)(=O)N3CCCCCC3)cc21)N1CCN(c2ccccc2)CC1	-1.9
CCC(NC(=O)c1csc2c1CCCC2)c1cn2cccnc2n1 (stereo not drawn)	0.94
CCOc1ccc(C(=O)Nc2ccc3oc(-c4cccnc4)nc3c2)cc1	-1
COc1ccc(CCNC(=O)CCn2c(=O)c3ccccc3n(Cc3cc(C)ccc3C)c2=O)cc1OC	-0.83

# Further entries
SMILES	fixLJ activator
O=C(O)Cn1ccc(C2CCCN(C(=O)c3cncc(Cl)c3)C2)n1 (stereo not drawn)	0.03
O=C(NCCO)c1ccc(S(=O)(=O)N2CCCCCCC2)cc1	-2
CCOC(=O)c1cc(NC(=O)c2ccc(F)cc2)c(=O)n2c1oc1ccc(Cl)cc12	0.38
CCS(=O)(=O)c1nc(S(=O)(=O)c2ccc(Cl)cc2)c(NCc2ccccc2Cl)s1	0.59
CCc1nn(CC(=O)N2CCN(c3cccc(C)c3C)CC2)c(=O)c2cc3sccc3n12	-0.66
COc1ccc(-c2cc(C(F)(F)F)nc(SCCC(=O)Nc3ccc(NC(C)=O)cc3)n2)cc1	-2.4
COc1ccc2c(c1)CCc1c(C(=O)Nc3c(C)nn(Cc4c(Cl)cccc4Cl)c3C)noc1-2	1.5
CCOC(=O)c1nnn(CC(=O)NC(=O)Nc2cccc(CC)c2)c1C(=O)OCC	-1.1

# (list continues)
SMILES	fixLJ activator
N=c1n(CCN2CCCCC2)c2ccccc2n1CC(O)COc1ccc(Cl)cc1Cl (stereo not drawn)	-3.3
CCCCOc1cccc(C(=O)Nc2cc(NC(=O)c3ccco3)ccc2OC)c1	-1.1
COc1ccc(-c2nnc(SCC(=O)NCCc3ccc(OC)c(OC)c3)nc2-c2ccc(OC)cc2)cc1	-2.5
Cc1cccc(Cn2c(Cc3ccccc3)nc3ccccc32)c1	-1.9
CCN(C)CC(C)CNC(=O)N(C)CCc1nc2c(C)cccc2[nH]1 (stereo not drawn)	-0.87
COc1ccc(CC(C)NS(=O)(=O)c2ccc3c(c2)CCN3S(C)(=O)=O)cc1OC (stereo not drawn)	-1.8
CCOc1ccc(-n2c(-c3ccc(OC)cc3)cc3c2CC(C)(C)CC3=O)cc1	1.3
Cc1ccc(CSc2ncc(Cl)c(C(=O)Oc3ccccc3F)n2)cc1	1

# Other compounds:
SMILES	fixLJ activator
COc1cccc(CNC(=O)CCNS(=O)(=O)c2ccc3c(c2)oc(=O)n3C)c1	-0.24
O=c1c(-c2ccc(Cl)cc2)c(C(F)(F)F)oc2c(CN3CCCCC3)c(O)ccc12	-0.95
CCCn1c(CCC(=O)Nc2ccc(C)c(Cl)c2)nc2cccnc21	-1.2
COc1cccc(NC2=CC(c3ccc(C(C)C)cc3)N(c3cccc(OC)c3)C2=O)c1 (stereo not drawn)	-1.9
CCCCNc1sc(S(=O)(=O)CCC)nc1S(=O)(=O)c1ccc(C)cc1	-1.3
CCc1ccc(-n2nc(CO)c(C(=O)NCCOC)n2)cc1	0.29
CCn1c(C2CCN(S(=O)(=O)c3sccc3C)CC2)nn(C)c1=O	-0.82
CCc1ccc2c(c1)c(=O)c(S(=O)(=O)c1ccc(Cl)cc1)cn2CC	-3.2

# Quoted at random: 2 entries already listed, in no set order.
SMILES	fixLJ activator
CCc1ccc(-n2nc(CO)c(C(=O)NCCOC)n2)cc1	0.29
CCc1ccc2c(c1)c(=O)c(S(=O)(=O)c1ccc(Cl)cc1)cn2CC	-3.2

# Next part
SMILES	fixLJ activator
Cc1cc(C)c2c(=O)cc(C(=O)Nc3sc4c(c3C(=O)NCc3ccco3)CCCC4)oc2c1	-1.2
CCOC(=O)c1coc(N2CCC(c3cc(=O)[nH]c(C)n3)CC2)n1	-0.73
CCCSc1ncc(Cl)c(C(=O)Nc2sc3c(c2C(=O)NCC)CCCC3)n1	-2.1
Oc1ccc(Cl)cc1C1=Nc2ccccc2N=C(c2ccccc2)C1	0.12
CCc1nnc2c3ccccc3nc(Nc3ccc(F)cc3C)n12	-0.41
COc1cc(OC)c(N(C)C(=O)CSc2c3c(nc4ccc(Cl)cc24)CCCC3)cc1Cl	-0.41
CC(=O)Nc1ccc2nc3c(=O)n(C)c(=O)n(C)c3nc2c1C	-1.9
CCOC(=O)CSc1nc(-c2ccc(OC)cc2)cc(C(F)(F)F)c1C#N	-4.4

# Later entries:
SMILES	fixLJ activator
O=C(Nc1cccc(-c2nc3ccccc3[nH]2)c1)c1ccccc1F	-2.5
CCC(=O)N1CCc2cc(S(=O)(=O)NC(Cc3ccccc3)C(=O)Nc3ccc(C)cc3)ccc21 (stereo not drawn)	-1.4
COc1ccc(-c2noc(CN(C)CC3CCC(=O)N(C)C3)n2)cc1 (stereo not drawn)	-0.82
COc1ccc(OCc2nc(C#N)c(NCc3ccccc3Cl)o2)cc1	0.61
O=C(NCCc1ccccc1)c1nn(-c2ccc(F)cc2)nc1CO	2
O=C(Nc1cc(-c2nc3cc(Cl)ccc3o2)ccc1Cl)c1cccs1	-0.67
Cc1ccccc1C(=O)N1CC2CCC(C1)N(Cc1c(C)noc1C)C2=O (stereo not drawn)	-0.17
CCn1c(=O)c2cc(C(=O)NCCc3cc(OC)ccc3OC)sc2c2ccccc21	-0.35

# The list continues.
SMILES	fixLJ activator
NC(=O)c1ccc(OC2COCCC2NC(=O)CCc2ccncc2)cc1 (stereo not drawn)	0.49
CCOc1ccc2c(c1)c(=O)c(C(=O)c1ccc(CC)cc1)cn2CC(=O)Nc1cccc(Cl)c1	-0.75
CC(C)CC(=O)N1CCC[C@]2(C1)CN(C1CCOCC1)CCC2O (stereo partly drawn)	0.35
CCc1cccc(-n2nnc(S(=O)(=O)c3ccc(OC)cc3)c2C)c1	-0.19
Cc1ccc(-n2nc(C)c3c(C(F)(F)F)cc(-c4cccnc4)nc32)cc1Cl	1.1
Cc1cc(N2CCN(C(=O)C3CC=CC3)CC2)nc(-c2ccccc2O)n1	0.14
NS(=O)(=O)c1ccc(NC(=O)c2cc(-c3cccs3)nc3ccccc23)cc1	0.6
Cc1ccc(OCC(=O)Nc2c(C(=O)c3ccccc3)oc3ccccc23)cc1C	-0.44

# New compounds follow:
SMILES	fixLJ activator
O=C(NCc1nc2ccccc2[nH]1)c1c(F)cccc1F	-3.1
CCC(C)[C@H](N)c1nnc(SCc2ccc(Cl)c(Cl)c2)o1 (stereo partly drawn)	-1.5
CC(C)Sc1nc2sc3c(c2c(=O)n1Cc1ccccc1)CCCC3	0.12
CCOc1ccc(-n2c(=O)c3c(C)c(C)sc3n(CC(=O)N3CCC(C)CC3)c2=O)cc1	-2
COc1ccc(C(=O)c2cn(Cc3ccc(C)cc3)c3cc4c(cc3c2=O)OCO4)cc1	-0.02
CSCC(=O)N1CCC2(CC1)CC(=O)N(Cc1cccc(C)n1)CCO2	-0.26
Cc1ccc(NC(=O)CN2C(=O)CCSc3ccccc32)c(C)c1	0.05
CCCc1cc(CN(C)C(=O)c2cccc(-c3nccc(OC)n3)c2)[nH]n1	-0.73

# Molecules shown so far that have a cyano group, in the order listed:
SMILES	fixLJ activator
CCOC(=O)CSc1nc(-c2ccc(OC)cc2)cc(C(F)(F)F)c1C#N	-4.4
COc1ccc(OCc2nc(C#N)c(NCc3ccccc3Cl)o2)cc1	0.61

# Next section
SMILES	fixLJ activator
CCOC(=O)N1CCc2c(sc3c2c(=O)n(-c2ccc(F)cc2)c(=O)n3CC(=O)c2ccc(Cl)cc2)C1	-1
CCOC(=O)C1(C)C=C(Nc2cccc(C(=O)O)c2)C(=O)N1c1cccc(C(=O)O)c1 (stereo not drawn)	-0.66
CCOC(=O)c1c(-c2ccccc2)csc1NC(=O)c1cc(-c2ccc(Cl)cc2)on1	-0.01
Cc1cc2nn(-c3ccccc3)nc2cc1NC(=O)c1cccc2c(Cl)cccc12	-2.3
Cc1ccc(-n2c(=O)c3c(cnn3C)n(Cc3ccc(Cl)cc3)c2=O)cc1	2
CCN(c1ccccc1)C(CNS(=O)(=O)c1ccccc1)c1ccccc1 (stereo not drawn)	0.27
CCc1nnc(SCC(=O)N2CCCC(c3n[nH]c(=O)n3CC)C2)o1 (stereo not drawn)	-1.5
COc1ccc(Nc2nc(Nc3ccc(OC)cc3OC)nc(N3CCOCC3)n2)c(OC)c1	-2.4

# The listing continues.
SMILES	fixLJ activator
CCCN1C(=O)c2[nH]nc(-c3ccccc3O)c2C1c1ccc(OCc2ccccc2)c(OCC)c1 (stereo not drawn)	-0.16
CCN(C(=O)C1CCC(CNS(=O)(=O)c2cccc3nsnc23)CC1)c1ccc(C)c(C)c1 (stereo not drawn)	0.86
CCC1CCC(C(=O)NC(C(=O)NCCN(CC(C)C)CC(C)C)C(C)C)CC1 (stereo not drawn)	-1.1
COc1ccc(-n2c(SCc3nc(-c4ccc(C)cc4)no3)nnc2-c2ccncc2)cc1	-1.5
COc1ccc(CN(C(=O)C2OCC(=O)NC2c2ccccc2)C2CC2)cc1 (stereo not drawn)	0.26
Cc1ccsc1CCN1C(=O)N(c2ccccc2)C(=O)C1CC(=O)Nc1ccc(Cl)cc1 (stereo not drawn)	0.7
Cn1c(=O)c2c(nc(CN3CCN(c4ccccc4F)CC3)n2Cc2ccc(F)cc2)n(C)c1=O	-1.3
CC(O)CNC(=O)c1ccccc1S(=O)(=O)Cc1ccccc1 (stereo not drawn)	-1.2

# Additional results.
SMILES	fixLJ activator
COc1cccc(CSc2nc3cc(OC)c(OC)cc3c3nc(CCn4nc(C)cc4C)nn23)c1	1
COc1ccccc1CNC(=O)c1ccc2nc(N3CCCCC3)sc2c1	0.9
CCC(C)Sc1oc(-c2ccco2)nc1S(=O)(=O)c1ccc(C)cc1 (stereo not drawn)	5.5*
O=c1cc(-c2ccccc2)nc2cc(-c3ccc(F)cc3)[nH]n12	0.23
Cc1ccc(C)c(OCCNC(=O)N2CCCCC2CN2CCOCC2)c1 (stereo not drawn)	-1.4
CCOc1ccc(OCC)c(Nc2nc3ccc(Cl)cc3n3cnnc23)c1	-1.3
COc1ccccc1N1CCN(S(=O)(=O)c2c(C)sc3ncn(CC(=O)Nc4ccc(C(F)(F)F)cc4)c(=O)c23)CC1	0.89
Cc1cccc(-c2nc3c4ccccc4nc(N4CCN(c5ccc(F)cc5)CC4)n3n2)c1	-0.6

# Next section
SMILES	fixLJ activator
O=C(CCc1nc2cccnc2n1-c1ccccc1)Nc1ccc(Cl)c(Cl)c1	-0.8
Cc1ccc(NS(=O)(=O)c2c(C)nc3sccn3c2=O)c(Cl)c1	1.1
CCn1cc(C(=O)N2CCN(c3cc(Cl)ccc3C)CC2)c(=O)c2cc(S(=O)(=O)N3CCCC3)ccc21	-1.9
Cc1cccc(N2CCN(C(=O)CN3C(=O)COc4ccc(S(=O)(=O)N5CCCC5)cc43)CC2)c1C	-0.46
CCOc1ccccc1NC(=O)C(CC(C)C)NS(=O)(=O)c1ccc2c(c1)oc(=O)n2C (stereo not drawn)	0.63
Cc1cccc(N2CCN(C(=O)c3oc(=O)c4ccccc4c3-c3ccccc3)CC2C)c1 (stereo not drawn)	0.65
COc1ccc(-c2oc3ncn4nc(-c5ccccc5Cl)nc4c3c2-c2ccc(OC)cc2)cc1	-2.1
N#CC1(c2ccccc2)CCN(C(=O)CCN2CCC(C(N)=O)CC2)CC1	-1.9

# (listing goes on)
SMILES	fixLJ activator
COc1ccc(Nc2nnc(-c3ccc(C)c(S(N)(=O)=O)c3)c3ccccc23)cc1	-1.8
Cc1cccc(C(=O)N(Cc2ccco2)Cc2ccccc2F)c1	0.08
Cc1ccc(N2CC(c3nnc(Cc4ccc(F)cc4Cl)o3)CC2=O)cc1 (stereo not drawn)	-0.97
CC1=C(C(=O)OC2CCCC2)C(c2ccc(F)cc2F)CC(=O)N1 (stereo not drawn)	0.7
CCOc1ccc(CN(CCc2ccc3c(c2)OCO3)Cc2ccc(CC)cc2)cc1	1.7
COc1cccc2c1Oc1nc(-c3ccccc3)nc(SCC(=O)N3CCCCC3)c1C2	-0.22
Nc1c(-c2nc(-c3ccc4c(c3)OCO4)cs2)c2ccccn2c1C(=O)c1ccc(Cl)cc1	-1.6
COc1ccc2c(c1)CCOC21CCN(C(=O)CCCN2CCCC2=O)CC1	0.82

# Source: PubChem BioAssay
